Methyltransferases = Primary Screen for Target Class Profiling of Small Molecule Inhibitors of Methyltransferases | 25,000 compounds, 3.9% hits | calls only at 40 µM | purified enzyme, MTase-Glo SAH luminescence; stronger effect = lower value; active = -50% or lower on at least one of six enzymes; inconclusive = the cases between; inactive = as a rule above -30% on all six;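 note: enzymes were COMT GAMT GNMT HNMT NNMT and PNMT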
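Each enzyme was reacted with SAM and its substrate, with compounds tested once at 40 uM; SAH formed was read by MTase-Glo luminescence.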
Calls only; i = inactive; ? = inconclusive; + = active, no number; ! = not active in a repeat. % is set by controls: 0 for no effect and ±100 for the full control effect. Not all compounds are listed; the hit share may differ from the screen's.

SMILES	Methyltransferases
C=CCn1c(=O)c2ccc(C(=O)NCC(C)C)cc2n2c(=O)n(CC(=O)NCc3ccccc3)nc12	i
O=C1N(Cc2cccc(F)c2F)CCCC1(O)CN1CCNCC1 (stereo not drawn)	i
CC(C)Cn1c(=O)c2ccc(C(=O)NC(C)C)cc2n2c(SCc3ccc(Cl)cc3)nnc12	i
C/C1=C\CCC(C)CCO[C@@H]2O[C@H](CO[C@@H]3OC[C@H](O)[C@H](O)[C@H]3OC1=O)[C@@H](O)[C@H](O)[C@H]2O (stereo partly drawn)	i
CCc1ccc(CN2C(=O)c3cc4ccccc4n3CC2(C)C(=O)NCCC(C)C)cc1 (stereo not drawn)	i
Cc1ccc2c(c1)c(-n1cccc1)c1n2CC(C)(C(=O)NCCC(C)C)N(Cc2cccs2)C1=O (stereo not drawn)	i
CCOC(=O)Cc1c(-c2ccccc2)c2cc(Cl)ccc2[nH]c1=O	i
CN(CCC1CCOCC1)Cc1ccccc1OCC(O)CN1CCSCC1 (stereo not drawn)	i
CSCCC(NC(=O)c1ccccc1NC(=O)c1ccccc1)C(=O)O (stereo not drawn)	i
COc1ncccc1-c1csc(CN2CCCC(C)(NC(C)=O)C2)c1 (stereo not drawn)	i
Cc1noc(-c2cn(C3CCN(C(=O)c4ccc(C)s4)CC3)nn2)n1	i
O=C(NC1CC1)c1nc2sccn2c1-c1ccc(C(F)(F)F)cc1	i
COc1ccc(CNC(=O)CCc2nnc3n(CC(C)C)c(=O)c4ccccc4n23)cc1	i
COC(=O)c1cc2n(n1)CC(C)(C(=O)NC1CCCCCC1)N(Cc1ccc(OC)cc1OC)C2=O (stereo not drawn)	i
CCCn1c(=O)c2ccc(Cl)cc2n2c(=O)n(CC(=O)Nc3ccc(OC)c(OC)c3)nc12	i
Cc1nn(CC(=O)N2CCCCCC2)c(=O)c2nc(C(C)C)sc12	i
N#Cc1ccc(O[C@@H]2CCOC[C@H]2NC(=O)CN2CCOC2=O)cc1	i
Cc1ccc(Cl)cc1NC(=O)CN(C)S(=O)(=O)c1ccc2[nH]c3c(c2c1)CCCC3	i
C[C@@H](NC(=O)C1=C[C@@H](NC(=O)Nc2ccccc2Br)[C@@H](O)[C@H](O)C1)C(N)=O	i
Cc1cc(C)c(S(=O)(=O)NCCn2c(C)cnc2C2CCC2)cc1C	i
O=C(CCc1nnc2n(Cc3ccc(Cl)cc3)c(=O)c3ccccc3n12)NCCCN1CCOCC1	i
COCC1CCN(C(=O)[C@@H]2CN(c3cnccn3)C[C@H]2COC)CC1	i
O=C1NC(=O)/C(=C/c2cccc(C(F)(F)F)c2)S1	i
CC1=C[C@H](O)[C@H]2C(C)(C)CCC[C@]2(C)[C@@]1(O)CO	i
CNCc1ccc(-c2cc(-c3nc(-c4ccc(S(=O)(=O)C(C)C)cc4)cnc3N)on2)cc1	i
O=c1[nH]c(C2CCCN(Cc3cccc(Cl)c3)C2)nc2ccc(F)cc12 (stereo not drawn)	i
COc1ccc(CCNC(=O)C2(C)CCOCC2)cc1	i
CC1(C(=O)NCc2ccccc2)Cn2c(ccc2-c2ccco2)C(=O)N1CCc1ccco1 (stereo not drawn)	i
C=CC(=O)Nc1cc(-n2c(=O)ccc3cnc4ccc(-c5ccc(NS(C)(=O)=O)cc5)cc4c32)ccc1C	?
CCNc1ncc(CN2CCN(c3ccncc3)CC2)cn1	+
C=C(C(=O)O)C1CC(O)C2(C)CCCC(=C)C2C1 (stereo not drawn)	+
CCCCCNc1nc2c(-c3ccc(F)cc3)nnn2c2ccccc12	i
Cc1cccc(-c2noc([C@@H]3Cc4nc[nH]c4CN3C(=O)COCC(=O)O)n2)c1	i
COc1ccccc1C(=O)N1CCC2(CC1)C(=NC1CCCCC1)NC(=O)N2c1cccnc1	i
COC(=O)N1CCN(Cc2cc(=O)c3cc(F)ccc3[nH]2)CC1	i
Cc1ccc(CN2C(=O)c3nc4ccccc4n3CC2(C)C(=O)NC2CCCC2)cc1 (stereo not drawn)	i
COCCCN1CC2(CCN(C(=O)CCn3cc(C)cn3)CC2)CC1=O	i
CCCn1c(=O)c2ccc(C(=O)NC3CCCC3)cc2n2c(=O)n(CC(=O)c3ccc(OCC)cc3)nc12	i
CCC(C)C1NC(=O)C2CCCN2C(=O)C(NC(C)=O)C(C)OC(=O)C(Cc2ccc(OC)cc2)N(C)C(=O)C2CCCN2C(=O)C(C(C)C)NC1=O (stereo not drawn)	i
CCC(C)NC(=O)Cn1ccc2cc(S(=O)(=O)N3CCCC3)ccc21 (stereo not drawn)	i
CCOC(=O)c1ccc2c(c1)[C@@H]1C=CC[C@@H]1[C@H](c1ccccc1OCc1ccccc1)N2	i
O=C1CCN(CC(O)C(F)(F)F)c2ccccc2CCN1Cc1ccccc1 (stereo not drawn)	i
CCC(C)/C=C(C)/C=C/C1=CC2=C(Cl)C(=O)C(C)(OC(C)=O)C(=O)C2=CN1C1CCCCN(C(CCC(N)=O)C(=O)O)C1=O (stereo not drawn)	i
CN(C)c1ccc(CNC(=O)c2cc3n(n2)CC(C)(C(=O)NCc2ccc(F)cc2)N(C)C3=O)cc1 (stereo not drawn)	i
CCOc1ccc(CCNc2nc3c(S(=O)(=O)c4ccccc4)nnn3c3ccccc23)cc1OCC	i
COc1ccc(NC(=O)c2ccc(-c3ccc(-c4noc(C)n4)cc3C)cc2)cc1N1CCN(C)CC1	i
Cc1cc(C)c(S(=O)(=O)n2cc(C)cc2C)c(C)c1	+
CC1(C(=O)NC2CCCCC2)Cn2c(ccc2-c2ccco2)C(=O)N1Cc1ccco1 (stereo not drawn)	i
CCc1nc2cc(N3CCCC(C(=O)O)C3)cnc2nc1CC (stereo not drawn)	i
O=C(C[C@@H]1CCNC[C@@H]1Cc1cc(COc2ccccc2)on1)Nc1ccccc1	i
CC(C)(C)c1ccc(/C=C/C(=O)Nc2ccc3c(c2)OCCO3)cc1	i
Cc1cccc(NC(=O)CSc2nnc3n(C)c(=O)c4ccc(C(=O)NC5CCCC5)cc4n23)c1	i
O=C(CCc1nnc2n(Cc3ccc(F)cc3)c(=O)c3ccccc3n12)N1CCN(c2ccccc2)CC1	i
O=C(O)c1cc2cccc([N+](=O)[O-])c2[nH]1	i
OC[C@@H]1CN(CC2CCCCC2)C[C@H]1c1nc(C2CC2)no1	i
Cc1ccc(CN2C(=O)c3cc4occc4n3CC2(C)C(=O)NC2CCCCCCC2)cc1 (stereo not drawn)	i
CC1CCC(NC(=O)C2c3cccn3CC(=O)N2CCC2=CCCCC2)CC1 (stereo not drawn)	i
Cn1c(=O)c2ccc(C(=O)NC3CCCC3)cc2n2c(=O)n(Cc3ccc(F)cc3Cl)nc12	i
CCOC(=O)c1cc2n(n1)CC(C)(C(=O)NC1CCC(C)CC1)N(Cc1ccc(Cl)cc1)C2=O (stereo not drawn)	i
COc1cccc(CC(=O)N2CC[C@@H](NC(=O)c3cnccn3)[C@H](O)C2)c1	i

Other entries follow:
SMILES	Methyltransferases
Cc1cnc(C2CCOCC2)n1C1CCCN(S(=O)(=O)c2ccccc2)C1 (stereo not drawn)	i
COCCCN1C(=O)c2cc(-c3ccccc3)nn2CC1(C)C(=O)NCc1ccccc1 (stereo not drawn)	i
COc1ccc(F)cc1-c1cccc(C(=O)NCC(=O)NCc2cccs2)c1	i
CC(=O)N1CCC(C(=O)NCc2cccnc2N(C)Cc2ccccc2)CC1	i
Cc1ccc(C(=O)Cn2nc3n(C)c(=O)c4ccc(C(=O)NC5CCCCC5)cc4n3c2=O)c(C)c1	i
Cc1ccc(Cl)cc1NS(=O)(=O)c1ccc2c(c1)n(C)c(=O)n2C	i
CCc1ccc(N2C(=O)c3cc(C(C)(C)C)nn3CC2(C)C(=O)NC2CCCCC2)cc1 (stereo not drawn)	i
COc1ccc2c(c1)OCC(CNC(=O)c1scc3c1OCCO3)C2 (stereo not drawn)	i
CC1(C(=O)NC2CCCCCC2)Cn2c(ccc2-c2ccco2)C(=O)N1Cc1cccnc1 (stereo not drawn)	i
CN(CC1CCOC1)C(=O)c1cccs1 (stereo not drawn)	i
COc1cc([C@H]2c3cc(O)c(OC)cc3C[C@@H](CO[C@@H]3O[C@H](CO)[C@@H](O)[C@H](O)[C@H]3O)[C@@H]2CO)ccc1O	i
O=C(N/N=C/c1ccc(O)c(O)c1)c1cc2ccccc2cc1O	i
Cc1cc(C[C@@H]2COC[C@@H]2NC(=O)c2cnn3cc(CCO)cnc23)on1	i
COc1ccc(-c2ccccc2C(=O)NCC#N)nn1	i
COCCn1c(C)nnc1-c1cc(-c2ccc(OC)c(OC)c2)ccn1	i
CCCNC(=O)c1cc2n(n1)CC(C)(C(=O)NCc1ccccc1)N(C)C2=O (stereo not drawn)	i
COc1cc(C2OCC3(O)C(c4ccc(O[C@@H]5O[C@H](CO)[C@@H](O)[C@H](O)[C@H]5O)c(OC)c4)OCC23O)ccc1O (stereo partly drawn)	i
O=C(NCCc1c[nH]c2ccc(Cl)cc12)c1cc2n(n1)CCCN(Cc1ccccc1)C2=O	i
CCc1cn(C[C@@H](C(=O)O)N(CC)CC)c(=O)[nH]c1=O	i
O=[N+]([O-])c1cccc2cn[nH]c12	i

Two entries picked at random from those above, as already listed:
SMILES	Methyltransferases
CCC(C)/C=C(C)/C=C/C1=CC2=C(Cl)C(=O)C(C)(OC(C)=O)C(=O)C2=CN1C1CCCCN(C(CCC(N)=O)C(=O)O)C1=O (stereo not drawn)	i
COC(=O)N1CCN(Cc2cc(=O)c3cc(F)ccc3[nH]2)CC1	i

Next part.
SMILES	Methyltransferases
CCCn1c(=O)c2ccc(C(=O)NC3CCCCC3)cc2n2c(=O)n(CC(=O)NC3CCCC3)nc12	i
CCN(CC)Cc1ccc2cc(COC(=O)Nc3ccc(C(=O)NO)cc3)ccc2c1	+!
CC(=O)c1c(C)cc(O)cc1O[C@@H]1O[C@H](CO)[C@@H](O)[C@H](O)[C@H]1O	?
CC(NC(=O)CC(=O)O)c1nc2ccccc2c(=O)[nH]1 (stereo not drawn)	i
Cn1ccc(C(=O)NCc2nnc3n2C(C(=O)N2CCN(c4ncccn4)CC2)CC3)n1 (stereo not drawn)	i
CC1CC(C)CN(S(=O)(=O)c2ccc3c(c2)oc(=O)n3CC(=O)NC2CCCCC2C)C1 (stereo not drawn)	i
CCCS(=O)(=O)Nc1ccc([C@H]2OCC(=O)N(CC(=O)N(C)C)[C@@H]2CO)cc1	i
CC(CNC(=O)CCc1nnc2n(Cc3ccccc3Cl)c(=O)c3ccccc3n12)c1ccccc1 (stereo not drawn)	i
CCc1ccccc1N1C(=O)N(Cc2cc(=O)n3ccccc3n2)c2ccccc2S1(=O)=O	?
CC1CCC(NC(=O)C2(C)Cn3c(ccc3-c3ccco3)C(=O)N2CCCN2CCCCC2)CC1 (stereo not drawn)	i
COC(=O)Nc1cc(C2CC2)nn1C	i
CC(=O)N1CCC(N2C[C@H](O)C[C@H]2c2nc(CS(=O)(=O)c3ccc(C)cc3)no2)CC1	i
O=C(NC1CCCC1)c1ccc2c(=O)n(Cc3ccccc3)c3n[nH]c(=O)n3c2c1	i
CCC(=O)N1Cc2ccccc2OC2(CCN(C(C)C)CC2)C1	i
CC(C)CNC(=O)c1ccc2c(=O)n(C(C)C)c3nn(CC(=O)Nc4ccc(Cl)cc4)c(=O)n3c2c1	i
COc1ccccc1CCN1CCCC(CN(C)C(=O)Nc2ccccc2)C1 (stereo not drawn)	i
O=C1CC(c2noc(Cc3ccc(F)cc3)n2)CN1c1ccc(F)cc1 (stereo not drawn)	i
O=C1c2cc3sccc3n2CC(C(=O)NC2CCCCCC2)(c2ccccc2)N1CCc1ccc(Cl)cc1 (stereo not drawn)	i
C[C@H]1[C@@H](O)[C@H](O)C2[C@]3(C)C([C@@H](O)[C@H]4OC(=O)[C@@H]1[C@@]24C)[C@](C)(O)C=C[C@H]3O[C@@H]1O[C@H](CO)[C@@H](O)[C@H](O)[C@H]1O (stereo partly drawn)	i
CN(C)c1ccc(CN2C(=O)c3cc4ccccc4n3CC2(C)C(=O)NCc2ccccc2)cc1 (stereo not drawn)	i

Some of the entries above, set out differently:
> CCOc1ccc(CCNc2nc3c(S(=O)(=O)c4ccccc4)nnn3c3ccccc23)cc1OCC
- Methyltransferases: i

> COc1ccc(NC(=O)c2ccc(-c3ccc(-c4noc(C)n4)cc3C)cc2)cc1N1CCN(C)CC1
- Methyltransferases: i

> Cc1cc(C)c(S(=O)(=O)n2cc(C)cc2C)c(C)c1
- Methyltransferases: +

> CC1(C(=O)NC2CCCCC2)Cn2c(ccc2-c2ccco2)C(=O)N1Cc1ccco1 (stereo not drawn)
- Methyltransferases: i

Ordered by count of non-hydrogen atoms (ascending): part of the list above
SMILES	Methyltransferases
CC(=O)c1c(C)cc(O)cc1O[C@@H]1O[C@H](CO)[C@@H](O)[C@H](O)[C@H]1O	?
CN(C)c1ccc(CN2C(=O)c3cc4ccccc4n3CC2(C)C(=O)NCc2ccccc2)cc1 (stereo not drawn)	i
CC(CNC(=O)CCc1nnc2n(Cc3ccccc3Cl)c(=O)c3ccccc3n12)c1ccccc1 (stereo not drawn)	i
C[C@H]1[C@@H](O)[C@H](O)C2[C@]3(C)C([C@@H](O)[C@H]4OC(=O)[C@@H]1[C@@]24C)[C@](C)(O)C=C[C@H]3O[C@@H]1O[C@H](CO)[C@@H](O)[C@H](O)[C@H]1O (stereo partly drawn)	i

(more compounds)
SMILES	Methyltransferases
CC(C)(C)CC(=O)N1CCC2(CC1)N(c1ccccc1)C(=O)CS2(=O)=O	i
COCC1CN(C(C)=O)CC12CCN(C(=O)c1nn(C)c3ccccc13)CC2 (stereo not drawn)	i
CN(C)C(=O)N1CCC2(CC1)CC(c1cccc(C(F)(F)F)c1)=NO2	i
COC[C@@]12CC[C@@H](N3CCOCC3)C[C@H]1CCN(c1nccc(N)n1)C2	i
c1ccc(-c2oc3ncnc(NC[C@@H]4CCCO4)c3c2-c2ccccc2)cc1	+
CC1CCCC(C)N1CCNC(=O)CCCc1nnc2n3nc(-c4ccccc4)nc3c3ccccc3n12 (stereo not drawn)	i
CN1C(=O)c2cc(C(=O)NCc3ccc4c(c3)OCO4)nn2CC1(C)C(=O)NCc1ccc(F)cc1 (stereo not drawn)	i
O=C1CCCCCN1C1CCN(Cc2ccsc2)CC1	i
Cc1ccccc1N1C(=O)c2cc(C3CC3)nn2CC1(C)C(=O)NC1CCCCCC1 (stereo not drawn)	i

High-throughput results from PubChem BioAssay.
